Screens from PubChem BioAssay.
CapD inh = Bacillus anthracis CapD inhibitors, primary screen, biochemical, fluorescence intensity; actives 0.23% (n = 140,000); z-score (test concentration not listed); CapD gamma-glutamyltranspeptidase (Bacillus anthracis Ames Ancestor); purified CapD enzyme, fluorescence intensity read-out; stronger effect = lower value; some hits fall short of the stated cut; AID 492967, 2010;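 active means z-score under -4 in either of two replicates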;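 further: stock transfer was 100 nL into about 40 µL; score is relative to mean and spread of the plate; one replicate is shown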
AID504770 = growth inhibition of E. coli YBA685, primary screen, V. cholerae RctB inhibitors; z-score (concentration not given with the values); E. coli YBA685 rctB-dependent plasmid, OD600 growth, 3 h; stronger effect = lower value; actives 0.27% (n = 130,000);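 active means z-score under -2 on both plates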;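 further: wells of about 30 µL received 100 nL stock; score is relative to mean and SD of the test wells; the first replicate is given; strong numbers were not always called active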
Active calls of the source: *; x = not tested or not shown; & = joins results of further samples.

SMILES	CapD inh	AID504770
COC(=O)C1=CN(Cc2ccc(C)cc2)C=C(C(=O)OC)C1c1ccc(C)s1	1.9	0.2
Cc1cccc(CS(=O)(=O)Cc2ccc(C(=O)NCCCN3CCC(C)CC3)o2)c1	-0.74	-0.7
CCCNC(=O)C1CCN(S(=O)(=O)c2ccccc2)CC1	x	1.2
O=C(C1CCN(S(=O)(=O)/C=C/c2ccccc2)CC1)N1CCN(c2ccccn2)CC1	x	0.35
COc1ccccc1C1C2=C(CC(C)(C)CC2=O)OC2=C1C(=O)CC(C)(C)C2	0.14	x
O=C1C(Nc2ccccc2)=CC(c2ccccc2)N1c1ccccc1 (centres undefined)	38	0.75
CC(C)(C)OC(=O)N1C(C(=O)O)CSC1c1cccc(Br)c1 (centres undefined)	x	-0.3
CCOC(=O)c1sc(=N)n(CC(=O)c2ccc(F)cc2)c1C	x	1.9
COc1ccc(C(C)(C)C)cc1NC(=O)COC(=O)C1CCC1	-0.2	2.1
Oc1ccc(Cn2cnc3ccccc32)c2cccnc12	-0.34	-0.25

A draw from above in order of SMILES length, highest first:
SMILES	CapD inh	AID504770
O=C(C1CCN(S(=O)(=O)/C=C/c2ccccc2)CC1)N1CCN(c2ccccn2)CC1	x	0.35
COC(=O)C1=CN(Cc2ccc(C)cc2)C=C(C(=O)OC)C1c1ccc(C)s1	1.9	0.2
CC(C)(C)OC(=O)N1C(C(=O)O)CSC1c1cccc(Br)c1 (centres undefined)	x	-0.3
CCOC(=O)c1sc(=N)n(CC(=O)c2ccc(F)cc2)c1C	x	1.9

The list continues:
SMILES	CapD inh	AID504770
COc1ccccc1NC(=O)Cn1c(C(F)(F)F)nc2ccccc21	-0.08	-0.5
O=S(=O)(c1cccs1)N1CCCc2cccc(O)c21	3	0.75
Nc1nc(CN2CCN(c3ccccc3)CC2)nc(Nc2ccccc2)n1	x	0.3
CCOC(=O)c1ccc(S(=O)(=O)N2CCC(C(=O)OCC)CC2)cc1	x	-0.25
Cc1cc(C)c(C#N)c(N2CCOCC2)n1	35	-0.6
CC1(C)CC(=O)C(C=NCCN2CCN(C(=S)Nc3ccccc3)CC2)=C(O)C1	0.03	-0.3
Cc1cc(C)cc(NS(=O)(=O)c2c(C)n[nH]c2C)c1	-0.57	-0.95
CN(C)c1ccc(C2N3CC4(C)CN2CC(C)(C3)C4)cc1 (centres undefined)	6	x
c1ccc(CSc2n[nH]c(-c3ccncc3)n2)cc1	x	1
Cc1ccc(NC(=O)CSc2n[nH]c(-c3ccc(Br)cc3)n2)cc1	-0.11	1.4
Cc1cc(C(F)(F)F)c(C#N)c(SCC(=O)NCCc2ccccc2)n1	0.15	x
CCNC(=O)Nc1c(-c2ccccc2)nc2ccccn12	x	1.6
CCOC(=O)c1c(CNCCN(CC)CC)n(C)c2cc(Br)c(OC(C)=O)cc12	-0.46	x
CCN1CCN(C(=O)c2ccc(S(=O)(=O)N(CC)CC)cc2)CC1	x	0
Cc1cc(C)c(OCC(O)CNC(C)(C)C)c(C)c1 (centres undefined)	-0.65	0.25
Cc1cccc(N2CC(O)(c3ccc(OC(F)F)cc3)[N+]3=C2SCCC3)c1 (centres undefined)	0.24	x
O=C(NCC1CCCO1)c1ccc2c(=O)n(Cc3ccco3)c(SCC(=O)N3CCN(c4ccccc4)CC3)nc2c1 (centres undefined)	-0.81	x
N#Cc1ccccc1-c1nnn(CC(=O)N/N=C/c2ccc3c(c2)OCO3)n1	0.07	1.6
Cc1ccc(C)c(NC(=O)C(C)N2C(=O)C3C4C=CC(C4)C3C2=O)c1 (centres undefined)	0.085	-0.55
O=C(Cn1cc(S(=O)(=O)N2CCN(c3ccccc3F)CC2)c2ccccc2c1=O)Nc1ccc(Cl)cn1	0.63	-0.2

Filtered by structure, the entries above containing a CF3 group (2)
SMILES	CapD inh	AID504770
COc1ccccc1NC(=O)Cn1c(C(F)(F)F)nc2ccccc21	-0.08	-0.5
Cc1cc(C(F)(F)F)c(C#N)c(SCC(=O)NCCc2ccccc2)n1	0.15	x

(more compounds)
SMILES	CapD inh	AID504770
Cc1ccc(N2CCNCC2=O)c(C)c1	x	-0.3
CC(C)CCNCC1OCc2ccccc2CO1	-0.2	-0.05
CCOC(=O)c1ccc(Nc2cc(C)nc(-c3ccccc3)n2)cc1	37	1.5
COc1ccc(CCNC(=O)CN(C)c2ccccc2)cc1OC	x	-0.25
Cc1nonc1OCCn1nnc(N)n1	x	-0.9
N#CC(C#N)=CNNc1ncnc2ccsc12	1.9	-0.65
O=C(Nc1ccc(OC(F)(F)F)cc1)Nc1ccc(C2=NCCO2)cc1	-0.29	1.7
CCOc1ccc2nc(NC(=O)c3ccccc3F)sc2c1	x	0
CC(C)=C1C2C=CC1C1C(=O)N(Cc3cccnc3)C(=O)C21 (centres undefined)	-0.11	-0.45
COC(=O)C(Cc1ccc(O)cc1)NC(=O)NC12CC3CC(CC(C3)C1)C2 (centres undefined)	0.2	-1.1

Random excerpt: 2 entries already listed
SMILES	CapD inh	AID504770
CC(C)=C1C2C=CC1C1C(=O)N(Cc3cccnc3)C(=O)C21 (centres undefined)	-0.11	-0.45
Cc1nonc1OCCn1nnc(N)n1	x	-0.9

(listing goes on)
SMILES	CapD inh	AID504770
O=C(/C=C/c1ccco1)NNc1ccc2ccccc2n1	x	-0.05
O=C(COc1ccc2oc3c(c2c1)CCCC3)Nc1ccccn1	x	-0.15
Cn1c(=S)n(CCSc2nc3ccccc3n2-c2ccccc2)c2ccccc21	0.24	0.25
C=C(C)CSc1nnc2n(-c3ccccc3C)c(=O)c3c4c(sc3n12)CCC4	-0.44	x
COC(=O)c1ccc(C2Nc3c(C(=O)OC)cccc3C3C=CCC32)cc1 (centres undefined)	51	-0.3
CCN(CC)N1CCN(S(=O)(=O)c2ccc(S(=O)(=O)c3ncccn3)cc2)CC1	2.2	-0.1
C/C(O)=C\c1sc2ccccc2[n+]1C	x	-0.35
CC(Oc1ccccc1)C(=O)Nc1scc2c1c(=O)oc1ccccc12 (centres undefined)	0.33	-0.4
CCNc1nc(NC(C)CC)nc(Oc2ccc(C(=O)OC)cc2)n1 (centres undefined)	0.11	x
O=C(O)CCc1nc2ccccc2c(=O)n1C1CC1	x	0.75

Exported with bars between the fields: 2 of the compounds above
structure | CapD inh | AID504770
Cc1cccc(N2CC(O)(c3ccc(OC(F)F)cc3)[N+]3=C2SCCC3)c1 (centres undefined) | 0.24 | x
O=C(NCC1CCCO1)c1ccc2c(=O)n(Cc3ccco3)c(SCC(=O)N3CCN(c4ccccc4)CC3)nc2c1 (centres undefined) | -0.81 | x

The results go on.
SMILES	CapD inh	AID504770
COc1ccc(CCNc2nc3c(c(=O)n(C)c(=O)n3C)n2Cc2cccc(F)c2)cc1OC	0.48	x
CNc1ccc(Br)cc1-c1nc2ccccc2[nH]c1=O	0.23	1
COc1ccc(NC(=O)N(C2CCCCC2)C(C)c2ccco2)c(OC)c1 (centres undefined)	0.42	1.6
CC(=O)N1CCC(C(=O)NNc2ncc(C(F)(F)F)cc2Cl)CC1	-0.65	x
CC1Cc2ccccc2N1C(=O)c1cccc(COc2ccc(Cl)cc2)c1 (centres undefined)	-0.11	-0.15
CCN=C(NCC)Nc1ccc(Cl)cc1	0.64	1.1
Cc1ccc(-n2ncc3c(Nc4c(C)n(C)n(-c5ccccc5)c4=O)ncnc32)c(C)c1	-0.51	x
CCN(CC)c1nc2c(s1)C(=O)CC(C)(C)C2	-0.14	0.9
O=c1oc2c(-c3ccc(Br)cc3)cc(O)cc2s1	0.78	-0.55
CN(CCNC(=O)c1cc(=O)[nH]c2ccc(S(=O)(=O)N3CCCCC3)cc12)Cc1ccccc1	1	0.35
CC(C)n1c(-c2ccccc2)csc1=Nc1ccccc1	1.8	0.1
CC[N+]1(C)C2CCC1CC(OC(=O)[C@H]1CCC(C(=O)OC3CC4CCC(C3)[N+]4(C)CC)(c3ccccc3)c3ccccc31)C2 (some centres undefined)	-0.45	x
Cn1cc(C(=O)OCC(=O)Nc2ccc(Cl)cn2)c2ccccc21	x	-0.45
O=C(Cc1cccs1)NC1CCCCCC1	x	-0.55
CCOC(=O)C1CCN(CN2C(=O)C3(SCC(=O)N3c3ccc(C)c(C)c3)c3ccccc32)CC1 (centres undefined)	0.25	x
CC(C)NC(=O)Cn1nnc(-c2ccc(Cl)cc2)n1	x	0.65
COc1cc2c(cc1OC)C(c1cccs1)N(C(=O)c1cccs1)CC2 (centres undefined)	x	0.1
Cc1ccc2c(=O)c(C(=O)c3ccccc3)coc2c1	-0.09	-0.05
N#CCc1ccc(NC2(C#N)CCCC2)cc1	-0.025	-0.5
Cc1ccc(C(=O)NC(=C(Cl)Cl)S(=O)(=O)c2ccc(C)cc2)cc1	-0.39	1.7
Nc1cc(=O)[nH]c(Nc2ccc(Oc3ccccc3)cc2)n1	x	0.3
O=C(CO)Nc1cccc(NC(=O)CO)n1	0.51	0.35
Nc1nc(Cn2c(-c3cncs3)nc3ccccc32)nc(N2CCOCC2)n1	0.57	x
O=C1CCCN2N=C(SCC(=O)NC3CCCCC3)SC2=N1	-0.21	0.4
O=C(OCCCc1ccccc1)N1CCN(c2ccccc2Cl)CC1	0.025	x
CC(C)(O)C#Cc1ccccc1C(=O)NC(CC(N)=O)C(=O)O (centres undefined)	0.39	-0.3
O=C(O)c1ccccc1S(=O)c1ccccc1CCO (centres undefined)	1.1	-0.15
CN(C)S(=O)(=O)c1cccc(C(=O)C2=C3SC=C(c4ccccc4)N3CC2)c1	x	-0.05
C=CCNc1oc(COc2ccc(C)cc2)nc1C#N	-0.15	-0.6
Cc1cc2c(cc1C)CN(c1cccc(C(=O)N/N=C/c3ccco3)c1)C2	x	-1.2
CN(C)S(=O)(=O)c1ccc(C(=O)Nc2ccc(OCC(=O)N3CCOCC3)cc2)cc1	-0.16	-1.4
COc1cccc(OC)c1CN1CCC(N(CCc2ccccc2)C(=O)c2cccc(C(F)(F)F)c2)CC1	0.73	x
CCOc1cccc(CNCC2NCCc3ccccc32)c1O (centres undefined)	-0.82	-1.2
Cc1ncc2c(c1OC(=O)c1ccccc1)COC(C)(C)OC2	19	-0.6
Cc1ccc(NC(=O)CSc2nc3ccccc3c(=O)n2CCCC(=O)N2CCN(c3ccccc3)CC2)cc1	-0.24	x
O=C(Nc1ccc(F)cc1F)c1nnsc1Sc1ccc(Cl)cc1	-0.53	x
CN1C=CC=C/C1=C(/C#N)C(=O)Nc1ccc(Cl)cc1	x	-0.7
Cc1cc(Sc2ccc([N+](=O)[O-])c(O)c2)c(C)cc1Cl	0.025	x
COc1ccc(CCNC(=O)CCCn2c(SCC(=O)NC3CCCCC3)nc3ccccc3c2=O)cc1OC	-0.29	x
CCOC(=O)c1cc(-c2ccc(Cl)cc2)[nH]c(=O)c1C#N	28	-0.85
COc1ccc(OC)c(SCC(=O)O)c1	-0.92	-0.65
CCCn1c(=N)c(C(=O)NC2CCCC2)cc2c(=O)n3ccccc3nc21	0.39	-0.25
CC(C)C(NS(=O)(=O)c1ccc2c(c1)OCCO2)C(=O)OCc1nc2ccsc2c(=O)[nH]1 (centres undefined)	x	-0.6
CCOc1cccc(NC(=O)C2CC(=O)N(C)C(=Nc3cc(Cl)cc(Cl)c3)S2)c1 (centres undefined)	0.08	x
CC1Cc2ccccc2N1CC(=O)NCc1ccc2c(c1)OCO2 (centres undefined)	x	-0.15
C=CCSc1nc2c(c(=O)[nH]1)C(c1ccccc1)C(C(=O)OCC)=C(N)O2 (centres undefined)	x	0.05
NC(=O)c1ccsc1NC(=O)C1=COCCO1	0.41	-0.1
O=C(CN1CCOCC1)NN1C(=O)c2cccc3cccc(c23)C1=O	34	0.5
O=C1NCC(COc2ccc(Cl)cc2)O1 (centres undefined)	x	-0.1
Cc1ccc(/C=C2\SC(=S)N(CC(=O)Nc3c(C)n(C)n(-c4ccccc4)c3=O)C2=O)cc1	0.43	x

Following part.
SMILES	CapD inh	AID504770
O=C(CC1SC(=O)NC1=O)Nc1ccccc1O (centres undefined)	-0.21	x
COc1ccccc1NC(=O)/C=C/c1cn(CCC#N)nc1-c1ccc(Cl)cc1	x	0.2
CC(C)(C)OC(=O)N1CCN(CCNC(=O)Nc2cc(Cl)cc(Cl)c2)CC1	0.53	-0.05
COc1ccccc1C(=O)NNC(=O)OCc1ccccc1	0.05	x
COc1cc(C(=O)Cc2nccn2C)cc(OC)c1OC	x	0.05
CN(C)Cn1nc(-c2ccccc2)n(-c2ccccc2)c1=S	x	-0.05
CCCCN(C)C(=O)c1c[nH]c2ccc(S(=O)(=O)Nc3ccc(OCC)cc3)cc2c1=O	0.49	0.1
CN(C)c1ccc(NC(=O)CSc2nc3ccccc3cc2C#N)cc1	x	1.6
CSc1ccc2c(c1)C(N1CCN(C)CC1)Cc1ccccc1S2 (centres undefined)	-0.28&-1.7	x
CCOc1ccc(/C=C(\C#N)C(=O)NCc2ccco2)cc1OC	x	2.1
Cc1cc2c(cc(C(=O)NCCCN3CCOCC3)n2Cc2ccc(Cl)cc2)o1	-0.13	0.15
O=C(CSc1nnc2c(n1)[nH]c1ccccc12)Nc1ccccc1	x	0.15
CCC(c1nnnn1CCOC)N1CCN(c2cccc(C(F)(F)F)c2)CC1 (centres undefined)	x	0.5
COC(=O)c1cccc(NS(=O)(=O)c2cccs2)c1	x	-0.3
CCNc1nc(OC)nc(N2CCN(c3ccc(F)cc3)CC2)n1	x	0.7
CCN(c1ccccc1)S(=O)(=O)c1ccc(Cl)nc1	0.14	-0.35
COc1cc(OC)nc(C(c2ccccc2)N2CCN(C(c3ccccc3)c3ccccc3)CC2)n1 (centres undefined)	-0.45	x
